Sfp PPTase inh: qHTS Assay for Inhibitors of Bacillus subtilis Sfp phosphopantetheinyl transferase (PPTase). Biochemical Sfp PPTase activity, qHTS. Potency, µM, without a hit: max response, negative = inhibition, most hits filed as inhibitors. hit rate 3.5% among 310,000. AID 1490, 2009; active = well fitted inhibition curve with a large enough effect; inconclusive = small, poorly fitted or top-dose-only effect, or another doubt; inactive = no such curve, though single readings can be large or run the other way;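 also: the enzyme is Sfp with the accession as filed and its product quenches rhodamine fluorescence; potency is read from the fitted curve at half-maximal effect; 0% = enzyme reaction without inhibitor and -100% = no enzyme wells; top concentration of the series not given in the record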
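Fluorescence-quenching assay: 15 nM Sfp-PPTase preincubated 15 min at room temperature with compound, then 5 uM rhodamine-CoA and 12.5 uM BHQ-2-labelled YbbR peptide added. Fluorescence (ex 525/em 598 nm) read at start and after 30 min; difference gives rate.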
ClpP mod: qHTS Assay for Activators of ClpP | hit rate 1.9% among 340,000 | ATP-dependent Clp protease proteolytic subunit (Bacillus subtilis (strain 168)), P80244 | purified B. subtilis ClpP, FRET peptide cleavage, 20 min | Potency, µM (top dose mostly 57.5 µM), for the others: at the top dose activity change, negative = active | AID 651965, 2013; active = well fitted falling curve with a large enough effect; inconclusive = small, poorly fitted or top-dose-only effect; inactive = no such curve, though single readings can be large or run the other way; also: potency is read from the fitted curve at half-maximal effect; the source files actives as falling curves though it sought activators and does not explain the sign; nearly all actives have a fitted effect of over 65% in size; many hits overshoot -100%
Target sequence (P80244 whole entry, looked up): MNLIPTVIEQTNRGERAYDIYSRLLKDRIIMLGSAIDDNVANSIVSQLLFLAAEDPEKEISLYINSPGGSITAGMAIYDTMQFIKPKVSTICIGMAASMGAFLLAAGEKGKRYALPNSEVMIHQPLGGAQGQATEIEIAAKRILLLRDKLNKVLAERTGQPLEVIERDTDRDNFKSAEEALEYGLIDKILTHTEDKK
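ClpP 10 microg/mL final, pH 8 Tris/KCl buffer with BSA, glycerol, Tween-20; compound pinned in; FRET-FV substrate; RT 20 min; Ex320/Em430; ΔFRET vs ADEP 5.8 microM, DMSO, no enzyme.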
Menin MLL FP FL: qHTS Assay for Inhibitors Targeting the Menin-MLL Interaction in MLL Related Leukemias: Competition With Fluorescein Labeled MLL-derived Peptide | Fluorescence polarization, fluorescein-MLL peptide displacement from menin | FP activity change, % at 61.4 µM | 290,000 tested, under 10 active; inconclusive = falling polarisation curve, or a change in total fluorescence; inactive = total fluorescence flat and polarisation flat or rising; no compound was filed as active; the % refers to the polarisation; negative = inhibition;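 also: % of control where 0% means no effect; inhibitors lower the polarisation; unlabelled MLL peptide was the positive control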
TRPV1 PAM: HTS Assay for Compounds that Act as Potentiators of the Vanilloid Receptor 1 | TRPV1-expressing cells, Fluo-8 calcium influx, capsaicin EC20 potentiation; host cell line not named in the record; control for the full effect not named in the record | potentiation, % at 8.33 µM | hit rate 0.02% among 320,000; active means potentiation above 80%; inconclusive means 30% to 80%; inactive means below 30%; also: 0% is about no effect
Target sequence (Q8NER1 whole entry, looked up): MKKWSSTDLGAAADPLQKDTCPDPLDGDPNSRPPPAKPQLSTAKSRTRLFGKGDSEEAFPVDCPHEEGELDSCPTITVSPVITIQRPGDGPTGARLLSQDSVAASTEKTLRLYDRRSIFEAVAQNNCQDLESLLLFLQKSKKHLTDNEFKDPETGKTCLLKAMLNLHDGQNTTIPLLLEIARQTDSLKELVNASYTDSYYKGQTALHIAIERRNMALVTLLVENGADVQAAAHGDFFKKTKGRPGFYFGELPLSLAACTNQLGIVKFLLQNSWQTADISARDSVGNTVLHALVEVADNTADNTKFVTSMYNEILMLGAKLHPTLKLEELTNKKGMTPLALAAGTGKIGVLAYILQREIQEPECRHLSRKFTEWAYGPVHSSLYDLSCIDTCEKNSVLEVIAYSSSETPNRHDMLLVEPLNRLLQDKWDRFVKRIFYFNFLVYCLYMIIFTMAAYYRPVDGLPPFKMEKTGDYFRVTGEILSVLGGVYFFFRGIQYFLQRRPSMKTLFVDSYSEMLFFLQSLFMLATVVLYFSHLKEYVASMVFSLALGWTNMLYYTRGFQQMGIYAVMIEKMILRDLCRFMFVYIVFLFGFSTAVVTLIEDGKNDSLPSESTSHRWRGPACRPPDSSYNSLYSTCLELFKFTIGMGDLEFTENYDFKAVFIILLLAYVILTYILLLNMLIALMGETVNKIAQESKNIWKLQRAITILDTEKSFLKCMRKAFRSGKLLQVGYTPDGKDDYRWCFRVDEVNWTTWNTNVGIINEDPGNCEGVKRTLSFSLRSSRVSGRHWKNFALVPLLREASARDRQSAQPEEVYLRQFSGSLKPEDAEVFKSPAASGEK
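TRPV1-expressing cells were cultured overnight at 35.5C and loaded with Fluo-8 calcium dye for 40 to 90 min at room temperature. After a 10 s baseline, compound was added and calcium influx was read kinetically for 3 min (ex 480/em 520 nm).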
gsp antagonist: qHTS for Antagonists of gsp, the Etiologic Mutation Responsible for Fibrous Dysplasia/McCune-Albright Syndrome: qHTS; hit rate 0.4% among 340,000; gsp-mutant cells, cAMP HTRF, 30 min; control for the full effect not named in the record; Potency, µM (series often up to 76.9 µM), without a hit: top-dose activity change, negative = inhibition, most hits filed as inhibitors; active = falling curve of any shape with a large fitted effect; inconclusive = falling curve, mostly with a smaller effect; inactive = flat or rising curve; cell line not stated here;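 also: intracellular cAMP measured with PDE inhibitor Ro 20-1724 present during compound exposure; potency is read from the fitted curve at half-maximal effect; % is scaled to controls: 0 for no effect and ±100 for the full control effect; nearly all actives have a fitted effect of over 65% in size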
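HTRF cAMP measurement after 30 min RT detection following 30 min, 37C compound treatment alongside […] (added as 300 uM solution) in G418-selected cells seeded at 2000/well and grown 16–24 h.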
gsp agonist: qHTS for Agonist of gsp, the Etiologic Mutation Responsible for Fibrous Dysplasia/McCune-Albright Syndrome: qHTS; Potency, µM (top dose mostly 76.9 µM), inactives show at the top dose activation (cAMP increase), usual class: activators; AID 624287, 2012; hit rate 0.13% among 340,000; gsp mutant cells, cAMP HTRF, 30 min; control for the full effect not named in the record; active = well fitted activation curve with a large enough effect; inconclusive = small, poorly fitted or top-dose-only effect, or another doubt; inactive = no such curve, though single readings can be large or run the other way; cell line not stated here;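 also: phosphodiesterase inhibitor Ro 20-1724 added with compounds to block cAMP breakdown; potency is read from the fitted curve at half-maximal effect; nearly all actives have a fitted effect of over 60% in size; about a fifth of the inactives were tested at one dose only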
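Cells in DMEM/10% FBS with G418 were pretreated with compounds in DMSO plus […] (300 uM stock) for 30 min at 37C. cAMP was measured by HTRF (cAMP-d2 plus anti-cAMP antibody-K) after 30 min at room temperature.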
CtBP-E1A blk: qHTS Assay for Inhibitors of the CtBP/E1A Interaction; CtBP / adenovirus E1A interaction (AlphaScreen); AlphaScreen GST-E1A/His-CtBP binding, 1536-well; stronger effect = lower value; control for the full effect not named in the record; activity change, % (test concentration not listed); hit rate 0.49% among 340,000; AID 651724, 2012; in the data active means activity change below about -65%; inconclusive means about -30% to -65%; inactive means above about -30%; also: % is scaled to controls: 0 for no effect and ±100 for the full control effect; compound concentration not given in the record
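GST-E1A and His-tagged CtBP (125 nM each as 5X stock) were preincubated with pin-transferred compound for 2 h at 37 °C in the dark, then glutathione donor and nickel acceptor beads were added for 1 h before AlphaScreen reading.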
The depositor's hits bear a star; ? = inconclusive; · = not tested or not shown; & = joins results of further samples; [ ] = remark or other dose.

SMILES | Sfp PPTase inh | ClpP mod | Menin MLL FP FL | TRPV1 PAM | gsp antagonist | gsp agonist | CtBP-E1A blk
CCN(CC)S(=O)(=O)c1ccc2nc(SC)sc2c1 | -3.0% | -3.0% | 0.4 | -11.9 | -5.3% | -6.2% | 7.7
CN(C)S(=O)(=O)c1cccc(NC(=S)N/N=C/c2ccco2)c1 | 15.8% | -3.3% | -1.1 | 2.3 | -8.8% | 13.9% | -11.9
CCOC(=O)CNC(=O)c1cc2c(=O)[nH]c3ccc(C)cc3c2s1 | 1.6% | 4.4% | 0.0 | 16.7 | -2.7% | -34.2% | ·
CC(=O)Nc1ccc(NC(=O)Cn2c(=O)n(-c3ccc(F)cc3)c(=O)c3oc4ccccc4c32)cc1 | -15.7% | · | 1.7 | 2.2 | -11.2% | 4.9%[15.4 µM] | 10.6
CCOC(=O)c1sc2nc(N3CCOCC3)c3c(c2c1N)CCCC3 | 7.3% | 31.6µM* | -2.3 | -8.5 | -5.0% | 21.1% | 4.5
Cc1ccc(C(=O)OCC(=O)NNC(=O)c2ccc([N+](=O)[O-])cc2)o1 | · | 0.8% | · | 6.1 | 11.3% | 9.8% | 4.3
CC(NC(=O)COc1ccccc1)C(=O)NC1=NCCS1 (centres undefined) | 8.8% | 1.6% | 0.5 | -8.4 | 4.4% | -23.2% | 42.0
CC1CC(=O)N(C)c2cc([N+](=O)[O-])ccc2N1 (centres undefined) | 14.3% | · | 5.2 | 26.1 | 17.1% | 4.5% | 3.5
COc1cccc(-c2nnn(CC(=O)N3CCC(C)CC3)n2)c1 | 1.3% | -1.4% | -0.4 | -28.7 | 9.6% | 9.0% | ·
Cc1ccc(-c2csc(NC(=O)C3CC=CCC3C(=O)O)c2C(=O)OC(C)C)cc1 (centres undefined) | -4.5% | -15.0% | 2.3 | -7.1 | -13.8% | 0.0% | -4.2

Quoted at random: four entries already listed
SMILES | Sfp PPTase inh | ClpP mod | Menin MLL FP FL | TRPV1 PAM | gsp antagonist | gsp agonist | CtBP-E1A blk
Cc1ccc(-c2csc(NC(=O)C3CC=CCC3C(=O)O)c2C(=O)OC(C)C)cc1 (centres undefined) | -4.5% | -15.0% | 2.3 | -7.1 | -13.8% | 0.0% | -4.2
CCN(CC)S(=O)(=O)c1ccc2nc(SC)sc2c1 | -3.0% | -3.0% | 0.4 | -11.9 | -5.3% | -6.2% | 7.7
CN(C)S(=O)(=O)c1cccc(NC(=S)N/N=C/c2ccco2)c1 | 15.8% | -3.3% | -1.1 | 2.3 | -8.8% | 13.9% | -11.9
CC1CC(=O)N(C)c2cc([N+](=O)[O-])ccc2N1 (centres undefined) | 14.3% | · | 5.2 | 26.1 | 17.1% | 4.5% | 3.5

Carrying on:
SMILES | Sfp PPTase inh | ClpP mod | Menin MLL FP FL | TRPV1 PAM | gsp antagonist | gsp agonist | CtBP-E1A blk
CCOc1ccccc1OCCCC(=O)Nc1ccc(Cl)c(S(=O)(=O)N2CCOCC2)c1 | · | -1.2% | · | 3.6 | -19.5% | -1.5% | ·
CSc1ccc(CNc2ccc(Cl)cc2)cc1 | 7.2% | -0.7% | 1.6 | 20.3 | -10.5% | 3.7% | -4.6
Cc1ccnc2c1ccc1ccccc12 | 14.1% | -20.9%&-21.7% | 2.1 | 9.4 | 8.7% | -1.0% | 2.1
CCOC(=O)c1ccc(NC(=O)c2nc[nH]c2C(=O)N[C@@H](CC(C)C)C(=O)OCc2ccccc2)cc1 | 16.7% | ? | 5.1 | -1.5 | 0.8% | · | 1.2
Cc1cc[n+](CCc2ccccc2)cc1C | -8.4% | -0.7% | 4.1 | -3.5 | 5.9% | -27.7% | 4.2
O=C(CCCNS(=O)(=O)c1cccc2nsnc12)NCCc1ccccc1 | 14.8% | 0.7% | 0.1 | -0.2 | 3.6% | 7.9% | -0.1
COC(=O)c1oc2ccccc2c1N | 18.8% | 25.1µM* | 6.1 | 10.0 | 3.9% | 6.6% | -3.2
CCCCOc1ccccc1N | 15.7% | 0.6% | 5.1 | 10.1 | -2.3% | -4.5% | -2.6
CC(C)C(NC(=O)/C=C/c1ccc(F)cc1)C(C)C | -1.7% | -2.7% | 2.1 | -23.0 | -1.1% | 13.6% | 3.0
CCOC(=O)c1sc(N(Cc2ccccc2)C(=O)CSc2nnc(C3CC3)n2N)nc1C | 4.1% | -2.6% | 4.5 | 7.0 | -9.9% | 2.6% | -2.4
C=CCn1c(=O)/c(=C/c2ccc(O)cc2)s/c1=C(/C#N)c1nnc2n1CCCCC2 | -6.4% | -1.3% | ? | -2.8 | -12.2% | ? | -0.1
Cc1cc(NC(=O)CSCC(=O)Nc2ccccc2Oc2ccccc2)no1 | · | -25.9% | · | -7.9 | 0.5% | ? | -8.0
Cc1cc(C)nc(N/N=C/c2cc3c(cc2[N+](=O)[O-])OCO3)n1 | -11.5% | · | -1.9 | -0.6 | 7.6% | 4.3% | 0.0
S=c1[nH]nc(C2CCCCC2)n1/N=C/c1ccc(Br)cc1 | ? | -0.3% | -2.2 | -6.3 | -9.9% | ? | 2.9
CN(Cc1ccccc1)S(=O)(=O)c1ccc(OCC(=O)NCc2ccncc2)cc1 | 3.1% | · | · | -19.1 | -9.3% | -3.9%[15.4 µM] | 0.0
COc1ccc(C(=O)OC2CCN(c3ncc(C(F)(F)F)cc3Cl)CC2)cc1 | -1.3% | -0.5% | 0.5 | 13.0 | 2.0% | -12.7% | 6.5
CC1CN(C(=O)Nc2ccc(F)cc2F)CC(C)O1 (centres undefined) | 12.1% | 0.4% | 0.2 | 9.8 | 11.5% | 11.6% | 6.4
C=CCN1C(=O)C(CC(=O)Nc2ccccc2)SC1=Nc1ccc(S(N)(=O)=O)cc1 (centres undefined) | 4.7% | 0.5% | 5.1 | -4.1 | -12.3% | 7.1% | 5.0
CC1Cc2ccccc2N1C(=O)CSc1nc(-c2ccco2)cc(C(F)(F)F)n1 (centres undefined) | 5.2% | -0.8% | -0.2 | -25.6 | 11.4% | -8.8% | -8.4
O=C(Cc1ccccc1)Nc1ccc(C(=O)Nc2ccccc2C(=O)O)cc1 | 0.5% | -4.3% | · | -4.8 | -11.5% | 18.5% | ?
CC(C)(c1ccc(O)cc1)c1ccc(O)c(C(=O)O)c1 | · | 4.2% | · | · | · | 1.5% | -16.4
O=c1oc(-c2ccc(O)c(O)c2)cc2cccc(O)c12 | · | ? | · | · | -1.3% | · | 1.1
CC(=O)Nc1ccc(S(=O)(=O)NCCc2ccc(F)cc2)cc1 | 8.3% | -1.4% | 0.9 | 5.0 | -9.2% | ? | 1.7
O=C(N/N=C\c1ccc(O)c([N+](=O)[O-])c1)c1ccccc1-n1cccc1 | 0.2% | -3.0% | 2.8 | 5.4 | -8.9% | -0.7% | 4.3
O=C(O)c1cc(=S)nc[nH]1 | · | · | · | · | 3.6% | -36.5%[inhibitor] | ?
COCCCNC(=O)/C(C#N)=C/c1c(N2CCN(C)CC2)nc2ccccn2c1=O | -3.3% | 3.7% | -23.3 | -2.6 | -0.2% | 16.1% | ·
CCOc1ccccc1OCCCC(=O)N(CC)CC(=O)Nc1ccc(NC(C)=O)cc1 | · | 2.1% | · | 12.4 | -2.0% | 15.9%[15.4 µM] | 6.7
CCOc1ccccc1OCC(=O)OCc1csc(CC(=O)Nc2ccccc2C)n1 | · | -6.4% | · | 4.8 | -1.9% | -26.4% | -16.5
O=C(Nc1oc2ccccc2c(=O)c1-c1ccccc1)c1ccco1 | · | ? | · | · | · | ? | 4.7
COc1ccccc1Nc1nc(N)nc(CN2CCc3ccccc3C2)n1 | 13.4% | -0.7% | 2.0 | ? | -7.7% | -84.9%[inhibitor] | -2.9
O=C(Nc1ccc2c(c1)OCCO2)c1cccs1 | 6.1% | -2.0% | 7.0 | -23.9 | 0.3% | ? | -9.7
O=C(NNC(=O)[C@@H]1CCCC[C@@H]1C(=O)O)c1cccs1 | 8.2% | 1.1% | 2.5 | 3.6 | 3.4% | -6.0% | 3.1
COc1ccc(/C=N\Nc2ccccn2)c(OC)c1 | 6.4% | ? | 1.9 | 6.8 | -5.8% | 9.1% | -19.7
NC(=O)c1ccsc1NC(=O)COC(=O)c1c(F)cccc1Cl | · | -4.9% | · | 18.9 | 5.6% | -9.2% | -8.4
O=Cc1ccc(OCC(=O)N2CCc3ccccc32)c(Br)c1 | · | -2.4% | · | -4.8 | -7.9% | -16.0% | -1.8
CCc1ccccc1N(CC(=O)NCc1ccco1)C(=O)CCC(=O)Nc1nccs1 | -1.9% | · | 1.8 | 1.4 | -6.0% | 28.4% | -1.7
CCSc1ccc([C@@H]2[C@H]3C(=O)N(CC)C(=O)[C@H]3[C@]3(C(=O)OC)CCCCN23)cc1 | · | -2.2% | · | -20.6 | -7.2% | -24.3% | -7.2
O=C(/C=C/c1ccccc1)N1CCN(C(=O)c2ccco2)CC1 | 13.2% | -3.2% | -3.7 | -2.9 | 13.6% | -43.2%[inhibitor] | 0.1
COc1cc(CCN2C(=O)c3cccc4cccc(c34)C2=O)c(S(=O)(=O)NCCCO)cc1OC | 7.8% | -1.5% | -1.2 | 15.7 | 8.5% | -40.3%[inhibitor] | -0.8
Cn1c(=O)[nH]c(=O)c2c1nc(N(CCO)Cc1ccccc1)n2CCCc1ccccc1 | 17.5% | -1.5% | -1.0 | 1.0 | 2.6% | 4.4% | 1.8
COc1cc(CN2CCCC(N3CCN(c4ccccc4C)CC3)C2)cc(Cl)c1O (centres undefined) | 11.6% | · | 0.7 | 0.6 | -3.8% | 7.8% | -9.5
C[C@H](CO)N1C[C@H](C)[C@@H](CN(C)S(=O)(=O)c2ccccc2)Oc2c(NC(=O)Nc3ccc(C(F)(F)F)cc3)cccc2C1=O | · | 0.7% | · | · | -20.9% | 15.9% | -0.8
CCOC(=O)c1[nH]ncc1CN1CCN(Cc2ccc(C)cc2)C(CCO)C1 (centres undefined) | 18.1% | · | -0.5 | 6.5 | 4.0% | -0.8%[15.4 µM] | 3.1
